Assay outcomes (PubChem)
GIRK2 activ: activators of human GIRK2 potassium channels. G protein-activated inward rectifier potassium channel 2 (Homo sapiens), P48051. HEK293-GIRK2 thallium flux, Thallos fluorescence. calls only for hits at 25 µM. actives 0.05% (n = 63,000). AID 1259325, 2017;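 active = among the strongest 0.2% of first-round signals and kept after retests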;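 also: first round at about 10 µM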
Target sequence (P48051 whole entry, looked up): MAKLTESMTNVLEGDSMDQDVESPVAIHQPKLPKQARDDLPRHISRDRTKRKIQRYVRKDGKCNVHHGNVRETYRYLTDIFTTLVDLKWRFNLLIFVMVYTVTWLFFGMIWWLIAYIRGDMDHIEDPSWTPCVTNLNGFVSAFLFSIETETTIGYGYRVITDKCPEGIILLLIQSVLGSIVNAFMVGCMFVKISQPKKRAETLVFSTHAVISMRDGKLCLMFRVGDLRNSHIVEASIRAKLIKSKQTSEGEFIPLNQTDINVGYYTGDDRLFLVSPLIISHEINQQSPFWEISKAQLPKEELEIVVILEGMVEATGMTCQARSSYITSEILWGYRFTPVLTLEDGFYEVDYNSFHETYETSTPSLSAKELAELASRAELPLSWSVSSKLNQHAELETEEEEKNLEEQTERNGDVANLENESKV
Calls only; i = inactive. An excerpt; count on the stated rates, not on these rows.

SMILES	GIRK2 activ
COc1ccc2nc(N(CCN3CCOCC3)C(=O)CS(=O)(=O)c3ccccc3)sc2c1	i
CC(NCCN(C)C)C(=O)C12CC3CC(CC(C3)C1)C2 (centres undefined)	i
COc1ccccc1OCC(=O)N1CCC(COCc2ccccc2)CC1	i
COc1cc(NC(=O)C2CCN(c3cc(-n4cccn4)ncn3)CC2)ncn1	i
CC(=O)N1CCc2c(sc(NC(=O)CCSc3ccccc3)c2-c2nc3ccccc3s2)C1	i
Cc1ccc(NC(=O)CCn2c(=O)oc3ccc(Cl)cc32)cc1F	i
Cc1ccc(CNC(=O)CCc2csc(NC(=O)c3ccc(=O)[nH]c3)n2)cc1	i
Cc1ccccc1CS(=O)(=O)Cc1ccc(C(=O)NCc2ccc(F)c(Cl)c2)o1	i
Cc1nc(NC(=O)c2ccc(-n3ccnc3)nn2)sc1C	i
COc1ccc(OC)c(NC(=O)CSc2nccc(N3CCCCC3)n2)c1	i
COc1cccc(S(=O)(=O)NCC(=O)N2CCCC2)c1	i
COc1ccc(-c2nnc(NC(=O)c3ccc4ncsc4c3)o2)c(OC)c1	i
O=C(CN1CCN(c2ccc(F)cc2)C1=O)NCCn1cccc1	i
O=C(CSc1cc(NCc2ccc(Cl)cc2)ncn1)NCc1ccco1	i
CN(C)CCN(Cc1ccccc1)c1ccccn1	i
CCOC(=O)c1ccccc1NC(=O)Cn1cnc2c(sc3ccccc32)c1=O	i
O=C(Cn1cnc2ccccc21)NCCc1ccsc1	i
CCOC(=O)N1CCc2c(sc(NC(=O)c3ccc(Cl)cc3)c2-c2nc3ccccc3s2)C1	i
COc1ccc(-n2c(=O)c3ccccc3n(CC(=O)NCCC3=CCCCC3)c2=O)cc1OC	i
CCCCC[C@H](O)/C=C/[C@@H]1[C@H]2C[C@@H](CCCCC(=O)O)O[C@H]2C[C@H]1O	i
COc1ccc(OCc2noc(CNC(=O)CCn3ccc(=O)[nH]c3=O)n2)cc1	i
Cc1onc(-c2ccccc2Cl)c1C(=O)N1CCc2nc(NC(=O)c3cnccn3)sc2C1	i
O=C(Cn1ncccc1=O)NCc1ccccc1Cl	i
CCOC(=O)Cn1c(=O)c2c(nc3n(-c4cccc(C)c4)c(C)cn23)n(C)c1=O	i
CC(C)(C)c1ccc(NC(=O)N2CC(c3nc(-c4cccc(Cl)c4)no3)C2)cc1	i
Cc1cc(Cl)n2nc(C)c(-c3ccc(Cl)cc3)c2n1	i
O=C(CSc1nnc(CCc2nc3ccccc3[nH]2)o1)NCc1ccco1	i
Cn1c(=O)n(Cc2ccccc2)c(=O)c2c1[nH]c(=S)n2C	i
O=C(/C=C/c1ccco1)NCc1ccsc1	i
O=C(O)c1cccc(Nc2nc3ccccc3nc2NS(=O)(=O)c2cccs2)c1	i
COc1cc(/C=C/C(=O)c2cc(C)ccc2O)cc(OC)c1OC	i
O=C(OCC(=O)c1ccc(Cl)cc1Cl)c1ccc2ccccc2n1	i
COc1ccc(CCNC(=O)CC2CCCCN2S(=O)(=O)c2ccc(C)cc2)cc1OC (centres undefined)	i
CN1CCN(CC#Cc2cccc(C(=O)c3cnn(-c4ccc(F)cc4)c3N)c2)CC1	i
CCCCn1c(=O)c2ccccc2n(Cc2nc(-c3cccc(OC)c3)no2)c1=O	i
CCc1ccc(S(=O)(=O)N2CCN(c3ccccc3)CC2)cc1	i
CC/C=C\C/C=C\C/C=C\C/C=C\C/C=C\CCCC(=O)O	i
COc1ccc(CCNC(=O)N2CCN(Cc3nnnn3-c3ccccc3)CC2)cc1	i
O=C(NCc1ccc(Cl)cc1)N(CCc1cccs1)Cc1ccco1	i
O=S(=O)(NCC(O)c1ccc2c(c1)CCO2)c1ccc2c(c1)CCCC2 (centres undefined)	i
Cc1cc(C)cc(-n2ccn(CC(=O)NC3CCCC3)c(=O)c2=O)c1	i
C=C1CCC2C(C)(C(=O)OC)CCCC2(C)C1CCC(C)CC(=O)O (centres undefined)	i
CS(=O)(=O)NCCn1ncc2c(NCc3ccc(F)cc3)ncnc21	i
CCOC(=O)C1CCCN(Cc2nnc(-c3ccccc3)o2)C1 (centres undefined)	i
CCc1ccc2oc(=O)cc(-c3oc4ccccc4c3NC(=O)c3cccs3)c2c1	i
O=C(Cn1c(=O)n(CCCCC(=O)NC2CCCCC2)c(=O)c2ccccc21)NCc1ccccc1	i
CN(C)CCN(C(=O)c1ccco1)c1nc2ccc(S(C)(=O)=O)cc2s1	i
O=C(/C=C/c1ccco1)NCCNc1cc(Nc2ccccn2)ncn1	i
CNC(=O)CSc1nnc(N2CCN(C(=O)Cc3ccccc3Cl)CC2)s1	i
CCOc1ccc(CN2C(=O)C(O)(CC(C)=O)c3cccc(C)c32)cc1 (centres undefined)	i
COc1ccc(Cl)cc1C(=O)N1C2CCC1COC2	i
Cn1cnnc1SCc1cc(=O)c(OCC(=O)Nc2ccc(Cl)c(Cl)c2)co1	i
COc1ccc(NC(=O)C(=O)c2cn(CC(=O)N3CCOCC3)c3ccccc23)cc1	i
CCCCC(C)(C)[C@H](O)/C=C/[C@H]1[C@H](O)CC(=O)[C@@H]1CCCCCCC(=O)O	i
Cc1oc2cc(OC(C)C(=O)O)ccc2c(=O)c1-c1ccc(Br)cc1 (centres undefined)	i
O=C(COc1ccccc1)NCCCn1ccnc1-c1ccccc1	i
COC(=O)c1ccc(N/C=C(\C#N)c2nc(-c3cc4cc(Cl)ccc4oc3=O)cs2)cc1	i
CCOC(=O)C(=O)NCC1CCS(=O)(=O)C1 (centres undefined)	i
COc1ccc(-c2ccc(S(=O)(=O)Nc3cccc(C(=O)O)c3)cc2)cc1	i
O=C(NCCc1c[nH]c2ccccc12)C(=O)Nc1ccc(N2CCCS2(=O)=O)cc1	i

(further entries)
SMILES	GIRK2 activ
Cc1nnc2[nH]nc(Nc3ccccc3)n2c1=O	i
O=C(COc1cccc(C(F)(F)F)c1)Nc1cc(N2CCOCC2)ncn1	i
COC(=O)c1ccc(NC(=O)C(=O)NC(C)Cc2ccco2)cc1 (centres undefined)	i
CCc1cc(CC)n(-c2nc3c(c(=O)n(CC(=O)C(C)(C)C)c(=O)n3C)n2CC)n1	i
O=C(NCC(O)C1CCCCC1)c1ccc(Br)cc1 (centres undefined)	i
COc1ccc(NC(=O)CN2N=NC3C(=O)N(c4ccc(F)c(F)c4)C(=O)C32)cc1 (centres undefined)	i
O=C(NC1CCCC1)N1CCN(c2nc3ccc([N+](=O)[O-])cc3s2)CC1	i
CCOC(=O)c1ccc(NC(=O)c2ccc(-n3nc(C)cc3C)nn2)cc1	i
O=C(NCC(O)c1ccc2c(c1)CCO2)C(=O)Nc1ccc(OC(F)(F)F)cc1 (centres undefined)	i
Cc1ccccc1NC(=O)c1c(O)c2ccccc2n(-c2ccccc2)c1=O	i
CC(C)Sc1ccc(CC(=O)NC2CC(=O)N(C3CC3)C2)cc1 (centres undefined)	i
COc1ccc(-c2cc3nn(CC(=O)N(C)c4cccc(C)c4)c(=O)n3c(C)n2)cc1	i
COc1ccc(S(=O)(=O)NCCC(O)c2ccccc2)c(C)c1 (centres undefined)	i
CCC(C)C(=O)OC1OC[C@]23C(C[C@@H](O)[C@]4(C)C2C(=O)[C@H](O)[C@@]2(C)[C@H](c5ccoc5)C[C@H]5O[C@]524)[C@]1(C)[C@H](OC(C)=O)[C@H](OC(C)=O)[C@@H]3O (some centres undefined)	i
Cc1ccc(S(=O)(=O)N(C)c2ccc(C(=O)N(C)C)cc2)cc1	i
CCC1=C(C(=O)OC)C(c2cccc(O)c2)n2ncnc2N1 (centres undefined)	i
CCOC(=O)c1cccc(NC(=O)CCCn2nnc3ccccc3c2=O)c1	i
O=C(CN1N=NC2C(=O)N(c3ccc(F)cc3)C(=O)C21)Nc1ccc(F)c(Cl)c1 (centres undefined)	i
COc1cc2[nH]c(=O)n(CCCCC(=O)N3CCN(c4cc(C)ccc4C)CC3)c(=O)c2cc1OC	i
CC(C)(C)CC(C)(C)c1ccc(OCC(O)CN2CCOCC2)cc1 (centres undefined)	i
COc1ccc(-n2nnc(C(=O)N3CCN(CCc4ccccc4)CC3)n2)cc1	i
COCCN1COc2ccc3c(c2C1)O/C(=C\c1ccc(OC)c(OC)c1OC)C3=O	i
CC(C)CNc1nc2c(c(=O)[nH]c(=O)n2C)n1CC(O)COc1ccc([N+](=O)[O-])cc1 (centres undefined)	i
O=C(O)c1cc2cc(Br)cc(Br)c2oc1=O	i
O=C(NCC(c1cccs1)N1CCOCC1)c1ccc2nsnc2c1 (centres undefined)	i
COc1cc2[nH]c3c(=O)n(CCC(=O)Nc4ccc(F)c(C)c4)cnc3c2cc1OC	i
CCOc1ccccc1NC(=O)Nc1ccc2c(c1)CCCN2C(=O)CC	i
CNC(=O)CSc1ncc(-c2cccc([N+](=O)[O-])c2)n1-c1ccc(Cl)cc1	i
COc1ccc(CCS(=O)(=O)Nc2cc3c4c(c2)CC(=O)N4CCC3)cc1	i
COc1ccc(CNS(=O)(=O)c2ccc(N3C(=O)CCC3=O)cc2)cc1	i
CC(=O)Nc1ccc(S(=O)(=O)NCCCN2CCN(c3ccccc3)CC2)cc1	i
COc1ccc(NC(=O)c2cn(Cc3ccc(NC(C)=O)cc3)cn2)cc1OC	i
Nc1nc(SCC(=O)N2CCOCC2)n[nH]1	i
COc1ccc2cccc(NC(=O)c3ccc(F)c(F)c3)c2n1	i
COc1ccc(-c2ccc(SCc3nc(-c4cc(OC)c(OC)c(OC)c4)no3)nn2)cc1OC	i
CN(C)S(=O)(=O)c1ccc(C(=O)N2CCC(c3nnc(-c4ccco4)s3)CC2)cc1	i
Cc1ccc(S(=O)(=O)N2CCCc3ccc(NS(=O)(=O)c4cc(C)ccc4C)cc32)cc1	i
O=C(NCC1CCN(C(=O)c2ccoc2)CC1)c1c(F)cccc1F	i
Cc1cc(S(=O)(=O)NCCS(=O)(=O)N2CCc3ccccc32)c(Cl)cc1Cl	i
Cc1noc(C2CC(=O)N(c3ccc4c(c3)OCCO4)C2)n1 (centres undefined)	i
Cc1cnc2n(c1=O)CC(C(=O)N1CCn3c1nc1ccccc13)CS2 (centres undefined)	i
COc1ccc(-c2c[nH]c(=S)n2-c2ccc(OC(F)F)cc2)cc1	i
O=C(NCCCn1ncccc1=O)C1CN(C(=O)c2ccc(F)c(F)c2)C1	i
O=C(CN1N=NC2C(=O)N(c3ccc(Br)cc3)C(=O)C21)Nc1ccc2c(c1)OCO2 (centres undefined)	i
CC(=O)Nc1ccc(NC(=O)c2cc(-c3ccc(Cl)cc3[N+](=O)[O-])oc2C)cc1	i
Cc1noc(Cn2c(=O)c3ccccc3n(CC(=O)NCCc3ccccc3)c2=O)n1	i
CC(C)c1ccc(NC(=O)CSc2ccc(N3CCOCC3)nn2)cc1	i
Cc1ccc(Cl)cc1NC(=O)CSc1nnc2ccc(C(=O)Nc3cccc(F)c3)cn12	i
CC(C)N1CCC(CNC(=O)c2ccc(Cl)cc2)CC1	i
COc1cccc(C(=O)Nc2ccc3c(c2)CCC(=O)N3Cc2ccccc2)c1	i
Cc1nc(-c2nnc(NC(=O)C3CCN(S(C)(=O)=O)CC3)o2)cs1	i
CCSc1ccccc1C(=O)NCC1(c2cccs2)CC1	i
Cc1ccc2nc(C3CN(C(=O)Nc4c(F)cccc4F)C3)[nH]c2c1	i
Cn1nc(C2CCN(C(=O)c3ccc4c(c3)OCO4)CC2)n(-c2ccccc2)c1=O	i
CC(C)C(NS(=O)(=O)c1cccc(Cl)c1)C(=O)O (centres undefined)	i
COc1ccc2oc(=O)c(S(=O)(=O)N3CCCC(C)C3)cc2c1 (centres undefined)	i
COc1ccc(C)cc1NC(=O)CSc1nnc(-c2ccc(OC)c(OC)c2)n1N	i
COc1ccc(CCC(=O)NCC2CCN(S(=O)(=O)c3cccnc3)CC2)cc1	i
COCCNC(=O)NC(C)Cc1cccs1 (centres undefined)	i
Cc1cccc(CN2C(=O)C3(c4ccccc42)N(c2ccc(F)cc2)C(=O)CS3(=O)=O)c1 (centres undefined)	i

Carrying on:
SMILES	GIRK2 activ
NC(=O)c1ccccc1OCC#CCNC(=O)c1ccccc1Br	i
Cc1cc(C)n(-c2cc(SCC(=O)Nc3ccccc3C(F)(F)F)ncn2)n1	i
C=CCNC(=O)Cn1c(=O)c2oc3ccccc3c2n(CC(=O)NC2CCCC2)c1=O	i
Cc1cc(NC(=O)c2csc(-c3cnccn3)n2)no1	i
O=c1cc(CN2CCN(Cc3ccccc3)CC2)c2cc(Cl)ccc2o1	i
COc1cc(OC)cc(C(=O)Nc2ccc3c(c2)CCCN3C(=O)c2ccccc2)c1	i
O=C(/C=C/c1cccs1)NCCn1ncccc1=O	i
N#Cc1nc(-c2ccc(S(=O)(=O)N3CCCC3)cc2)oc1N1CCCCC1	i

Part of the list above, reformatted:
SMILES,GIRK2 activ
Cc1nc(-c2nnc(NC(=O)C3CCN(S(C)(=O)=O)CC3)o2)cs1,i
CCSc1ccccc1C(=O)NCC1(c2cccs2)CC1,i
Cc1ccc2nc(C3CN(C(=O)Nc4c(F)cccc4F)C3)[nH]c2c1,i
Cn1nc(C2CCN(C(=O)c3ccc4c(c3)OCO4)CC2)n(-c2ccccc2)c1=O,i
CC(C)C(NS(=O)(=O)c1cccc(Cl)c1)C(=O)O (centres undefined),i
COc1ccc2oc(=O)c(S(=O)(=O)N3CCCC(C)C3)cc2c1 (centres undefined),i
COc1ccc(C)cc1NC(=O)CSc1nnc(-c2ccc(OC)c(OC)c2)n1N,i
COc1ccc(CCC(=O)NCC2CCN(S(=O)(=O)c3cccnc3)CC2)cc1,i
COCCNC(=O)NC(C)Cc1cccs1 (centres undefined),i
Cc1cccc(CN2C(=O)C3(c4ccccc42)N(c2ccc(F)cc2)C(=O)CS3(=O)=O)c1 (centres undefined),i
NC(=O)c1ccccc1OCC#CCNC(=O)c1ccccc1Br,i
Cc1cc(C)n(-c2cc(SCC(=O)Nc3ccccc3C(F)(F)F)ncn2)n1,i
C=CCNC(=O)Cn1c(=O)c2oc3ccccc3c2n(CC(=O)NC2CCCC2)c1=O,i
Cc1cc(NC(=O)c2csc(-c3cnccn3)n2)no1,i
O=c1cc(CN2CCN(Cc3ccccc3)CC2)c2cc(Cl)ccc2o1,i
COc1cc(OC)cc(C(=O)Nc2ccc3c(c2)CCCN3C(=O)c2ccccc2)c1,i
O=C(/C=C/c1cccs1)NCCn1ncccc1=O,i
N#Cc1nc(-c2ccc(S(=O)(=O)N3CCCC3)cc2)oc1N1CCCCC1,i
